Bioassay records as filed in PubChem.
CtBP-E1A inh: CtBP/E1A binding inhibition; AlphaScreen GST-E1A/His-CtBP binding, 1536-well; stronger effect = lower value; control for the full effect not named in the record; activity change, % (test concentration not listed); 340,000 tested, 0.49% active; AID 651724; in the data active means activity change below about -65%; inconclusive means about -30% to -65%; inactive means above about -30%; further: on the % scale 0 is the no-effect control and ±100 the full control effect; compound concentration not given in the record
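AlphaScreen with 125 nM GST-E1A and 125 nM His-CtBP (5X stocks) in Tris pH 8.0, 300 mM NaCl, BSA, Tween 20, TCEP. Compounds preincubated 2 h at 37 deg C, then glutathione donor/nickel acceptor beads added for 1 h at 37 deg C in dark.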
Six1-Eya2 blk: inhibitors of human Six1/Eya2 interaction; AlphaScreen GST-Six1/His-Eya2 binding, biochemical; stronger effect = lower value; control for the full effect not named in the record; activity change, % (test concentration not listed); 360,000 tested, 0.56% active; AID 651725; in the data active = activity change below about -65%; inconclusive = about -30% to -65%; inactive = above about -30%; further: on the % scale 0 is the no-effect control and ±100 the full control effect; compound concentration not given in the record
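Homogeneous AlphaScreen proximity assay pairing GST-Six1 with His-tagged Eya2 (added as 5X mix: 250 nM and 500 nM) in 50 mM Tris pH 8.0, 300 mM NaCl, 1 mM TCEP. Glutathione donor and nickel acceptor beads; 1 h, 37 °C, dark.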
PINK1 modulator: changes PINK1 expression; PINK1 immunofluorescence, high-content cytometry, 24 h; Potency, µM (series often up to 76.6 µM), for inactives: top-dose activation (PINK1 increase), usual class: activators; 410,000 tested, 0.2% active; active = well fitted activation curve with a large enough effect; inconclusive = small, poorly fitted or top-dose-only effect; inactive = flat fitted curve, though single readings scatter; cell line not stated here;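 further: potency means the concentration at half of the fitted maximal effect; % of control where 0% means no effect; nearly all actives have a fitted effect of over 65% in size; a mitochondrial uncoupler was the plate control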
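Cells are seeded, rested 12 hours, then given compound at five concentrations or DMSO for 24 hours. After fixation, blocking and antibody staining, PINK1 amount and mitochondrial localization are scored; CCCP serves as control.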
TRPML1 blocker: blocks the human TRPML1 channel; Q9GZU1; TRPML1-inducible cells, Ca2+ dye fluorescence, FDSS; stronger effect = lower value; inhibition of EC80 agonist-evoked calcium signal; activity change, negative = inhibition, % (concentration not given with the values); 390,000 tested, 0.02% active; in the data active means activity change below about -50%; inconclusive means about -30% to -50%; inactive means above about -30%;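 further: stimulus is agonist 54-4 at its EC80 concentration; on the % scale 0 is the no-effect control and ±100 the full control effect; compound concentration not given in the record; the text of the record puts the active cut at -80%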
Target sequence (Q9GZU1 whole entry, looked up): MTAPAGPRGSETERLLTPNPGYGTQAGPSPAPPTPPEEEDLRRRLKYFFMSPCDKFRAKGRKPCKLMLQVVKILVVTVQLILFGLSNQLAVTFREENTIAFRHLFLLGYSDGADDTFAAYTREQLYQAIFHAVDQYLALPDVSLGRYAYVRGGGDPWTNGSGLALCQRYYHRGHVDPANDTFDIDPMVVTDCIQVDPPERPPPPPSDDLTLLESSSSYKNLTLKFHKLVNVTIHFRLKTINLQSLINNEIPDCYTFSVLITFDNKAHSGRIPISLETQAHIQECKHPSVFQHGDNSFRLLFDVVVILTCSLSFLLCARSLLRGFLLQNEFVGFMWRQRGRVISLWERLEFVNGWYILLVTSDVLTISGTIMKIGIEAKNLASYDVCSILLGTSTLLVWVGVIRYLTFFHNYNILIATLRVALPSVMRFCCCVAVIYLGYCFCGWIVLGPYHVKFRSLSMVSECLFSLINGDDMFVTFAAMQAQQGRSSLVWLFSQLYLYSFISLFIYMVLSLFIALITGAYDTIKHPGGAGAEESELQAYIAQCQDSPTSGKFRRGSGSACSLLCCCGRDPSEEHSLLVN
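TRPML1-DL cells, Tet-induced overnight (~16 h, 37 °C) at 1,500 cells/well, were loaded with Ca8 no-wash dye plus quencher for 45-90 min at room temperature. Compounds were pinned during FDSS kinetic reading; agonist 54-4 at EC80 (4 uM final) then added.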
D2 ag: human D2 receptor agonism in beta-arrestin assay. activation, % (no concentration beside the values). 360,000 tested, 0.084% active. DiscoveRx PathHunter D2 beta-arrestin, luminescence, 90 min; 100% = 57 uM dopamine signal; in the data active = activation above about 40%; inconclusive = about 15% to 40%; inactive = below about 15%; further: compound concentration not given in the record; the text of the record calls up to 30% inactive
Target sequence (P14416 whole entry, looked up): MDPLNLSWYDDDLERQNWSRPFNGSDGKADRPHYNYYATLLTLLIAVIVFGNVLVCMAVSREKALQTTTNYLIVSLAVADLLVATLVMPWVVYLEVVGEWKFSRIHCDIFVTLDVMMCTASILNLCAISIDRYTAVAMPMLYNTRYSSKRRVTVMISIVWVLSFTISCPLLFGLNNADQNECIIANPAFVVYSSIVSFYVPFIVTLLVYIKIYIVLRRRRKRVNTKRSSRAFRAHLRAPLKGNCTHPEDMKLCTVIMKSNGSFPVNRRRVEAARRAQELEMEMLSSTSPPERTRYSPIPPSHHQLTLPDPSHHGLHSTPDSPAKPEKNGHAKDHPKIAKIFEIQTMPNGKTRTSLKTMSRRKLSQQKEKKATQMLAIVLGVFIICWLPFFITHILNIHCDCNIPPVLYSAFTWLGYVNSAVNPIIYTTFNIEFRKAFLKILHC
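DiscoveRx PathHunter D2 beta-arrestin cells (2,100/well) attached overnight, then compound-stimulated 90 min at 37 C in HBSS/10 mM HEPES/0.1% Tween-20 buffer; beta-galactosidase complementation read by luminescence after 1 h at ambient temperature. Dopamine 57 uM final (EC100) as control.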
TRPML1 agonist: human mucolipin-1 channel agonism. TRPML1-expressing cells, Ca2+ dye fluorescence, FDSS; host cell line not named in the record; reference of the full effect not given here. 410,000 tested, 0.12% active. activation, % (concentration not given with the values). AID 624414; in the data active = activation above about 50%; inconclusive = about 30% to 50%; inactive = below about 30%; further: 0% is about no effect; the text of the record puts the active cut at 80%
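Kinetic FDSS Ca2+ read in Tet-induced TRPML1-DL cells (ABD Ca8 dye plus quencher, 45-90 min RT loading): baseline, then compound, then 110 s agonist window; EC80 agonist 54-4 at 4uM final added afterwards for a 110 s antagonist window.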
The depositor's hits bear a star; ? = inconclusive; . = not tested or not shown; & = joins results of further samples; [ ] = dose if it differs, or a comment.

SMILES	CtBP-E1A inh	Six1-Eya2 blk	PINK1 modulator	TRPML1 blocker	D2 ag	TRPML1 agonist
Clc1nc(Cl)nc(N(c2ccccc2)c2ccccc2)n1	-10	8	-2.5%	-9	-2.0	1.1
COc1cc2nc(NC(=O)c3ccc(F)cc3Cl)sc(=O)c2cc1OC	-10	-24	0.2%	.	-3.4	.
Oc1ccc(-c2n[nH]c(=S)n2-c2ccc3c(c2)OCCO3)cc1	-7	0	0.4%	-14	-7.0	2.3
COc1cc(OC)c(/C=C2\C(=O)Nc3ccccc32)c(OC)c1	-4	1	2.6%	27	-2.5	0.9
C=C(C)Cn1c(N2CC(C)CC(C)C2)nc2c1c(=O)[nH]c(=O)n2C (stereo unspecified)	-7	4	0.9%	-1	-6.3	-0.5
CCN(Cc1ccccc1)S(=O)(=O)c1cc(C(=O)NC(C)C2CC3CCC2C3)ccc1OC (stereo unspecified)	-11	-2	-0.6%	14	-3.2	0.6
COc1cccc(OCc2nc3ccccc3n2CCOc2ccc(C)cc2)c1	.	.	2.7%	59	.	6.8
COC(=O)c1cc(Nc2cc(C)c3ccc(O)cc3n2)cc(C(=O)OC)c1	-23	0	4.8%	-6	-1.4	1.2
COCc1cc(C)nc(SCC(=O)Nc2ccc3c(c2)n(C)c(=O)n3C)c1C#N	-9	8	13%	10	-2.5	0.8
CCC(=O)Nc1nnc(C)s1	-10	9	3.3%	3	-6.0	-0.3
N#C/C(=C\c1ccccc1O)C(=O)Nc1cccnc1	4	3	2.1%	16	4.0	1.0
CC(C)Nc1nc(Nc2ccc(Cl)cc2F)c2sccc2n1	2	2	5.6%	.	-1.2	0.2
Cc1ccccc1Cn1c2ccccc2c2cnn(CC(=O)N3CCC(C)CC3)c(=O)c21	.	.	0.2%	-20	.	1.6
CCOCCn1c(CN2CCN(c3cccc(Cl)c3)CC2)nc2c1c(=O)n(C)c(=O)n2C	-20	-16	3.2%	-2	1.2	1.2
CC(C(=O)O)n1cnc2sc3c(c2c1=O)CCCC3 (stereo unspecified)	2	9	3.3%	6	-0.7	0.2
O=C(Nc1ccc(NS(=O)(=O)c2ccc([N+](=O)[O-])cc2)cc1)c1ccco1	1	-11	-1.5%	36	0.9	0.7
CCN1CCN(C(=O)CSc2cc(=O)n(CC)c3ccccc23)CC1	0	-3	0.2%	-11	-2.3	-0.3
Cc1ccc(C(=O)NCC(=O)OCC(=O)Nc2cc(C)c(C)cc2[N+](=O)[O-])cc1	.	5	0.2%	-6	-2.8	1.6
Cc1cccc(OC(C)C(=O)Nc2nccs2)c1 (stereo unspecified)	-13	-12	1.5%	-1	-1.1	-0.4
COc1ccc(NC(=O)c2sc3nc4c(c(-c5ccc(OC)cc5)c3c2N)C(=O)CC(C)(C)C4)cc1	.	.	0.1%	5	.	3.6
CC(=O)NC12CC3CC(C1)CC(C(=O)N1CCN(S(=O)(=O)c4ccccc4[N+](=O)[O-])CC1)(C3)C2	1	4	1.5%	-7	-1.2	0.1
CC(=O)c1cccc(-c2ccnc3c2CC(C(=O)NCCC(F)(F)F)O3)c1 (stereo unspecified)	8	8	9.6%	.	1.2	-0.4
C[C@H]1CN([C@@H](C)CO)S(=O)(=O)c2ccc(C#CC3(O)CCCC3)cc2O[C@@H]1CN(C)C(=O)Cc1cccnc1	-10	9	2.8%	14	-6.6	-0.5
COc1ccc2oc(C(=O)OCC(=O)N3CCCC3=O)c(C)c2c1	9	-3	3.2%	-14	-2.6	1.4
O=C(NCCc1ccc(Cl)cc1)c1cccc(S(=O)(=O)N2CCCC2)c1	-3	-17	1.4%	50	-1.2	-0.3
Cn1cc(C(=O)NS(=O)(=O)Nc2ccc(Br)cn2)c2ccccc21	0	6	3.7%	9	-4.6	-0.3
CC(C)(C)n1nnnc1C(c1ccccc1)N1CCN(c2ccc(C(F)(F)F)cn2)CC1 (stereo unspecified)	6	-1	4.1%	.	.	16
O=C(CS(=O)(=O)Cc1ccccc1)N1CCN(C(=O)c2ccco2)CC1	5	4	-2.4%	9	-1.2	0.5
O=C(Nc1nc(-c2ccccc2)cs1)c1cccc(S(=O)(=O)N2CCN(Cc3ccccc3)CC2)c1	3	-12	-0.1%	-27	-6.5	2.3
Cc1cc(CN2C(=O)c3ccccc3C2=O)on1	0	-8	-8.5%[38.3 µM]	-6	-2.2	-0.7
COc1cccc(CNC(=O)C2CCCN(c3nn4cc(-c5ccc(C)cc5)nc4s3)C2)c1 (stereo unspecified)	.	.	3.7%	-5	.	0.5
Cc1ccc(NC(=O)c2sc(-n3nc(C)c(Cc4ccc5c(c4)OCO5)c3C)nc2C)cc1C	.	.	3.4%	8	.	-0.1
COc1ccc2c(c1)[C@H]1[C@H](CO2)[C@H](c2ccccc2)[C@]2(C)C(=O)N(CC3CCCO3)CC(=O)N12 (stereo partly specified)	-2	-1	1.5%	10	-2.4	-0.8
CCN(CC)c1c([N+](=O)[O-])c(=O)n(CC)c2ccccc12	.	-4	0.2%	-1	0.3	1.1
NCC(c1ccccc1Cl)c1c[nH]c2ccccc12 (stereo unspecified)	-3	-8	4.6%	-4	-1.1	0.0
CCCCCCCCSc1n[nH]c(N)n1	-21	3	2.0%	-6	-2.0	3.7
COc1ccc2cc(CO)c3cc(OC)c(OC)cc3c2c1	-6	-20	-1.0%	7	6.1	-0.4
C[C@@]12C(=O)Nc3ccc(F)cc3C(=O)N1[C@H]1c3ccccc3OC[C@@H]1[C@@H]2c1ccccc1	-30	-2	0.3%	5	1.1	1.9
c1ccc(C(c2nnnn2C2CCCC2)N2CCN(c3ccccc3)CC2)cc1 (stereo unspecified)	-9	-8	-1.5%	-10	-2.2	27
CNNC(=S)NCCC1=CCCCC1	.	2	1.4%	14	3.3	1.2
O=C(c1cccc(C(F)(F)F)c1)N1CCCC1	6	6	1.1%[38.3 µM]	-5	-1.9	-0.7
O=c1[nH]c(=O)n(CCCc2ccccc2)cc1-c1ccccc1	0	2	-4.7%	-13	-1.3	0.6
CC(NC(=O)COC(=O)c1cccnc1Cl)C12CC3CC(CC(C3)C1)C2 (stereo unspecified)	.	13	-0.1%	-7	0.8	0.1
COc1ccc(CNC(=O)CNC(=O)c2ccc(Br)o2)cc1OC	-5	-1	-1.1%	5	-4.3	1.2
O=C(COc1ccccc1)OCC(=O)c1c[nH]c2ccccc12	-10	8	-2.3%	32	-3.7	1.5

Next part, overlapping the part above by three compounds.
SMILES	CtBP-E1A inh	Six1-Eya2 blk	PINK1 modulator	TRPML1 blocker	D2 ag	TRPML1 agonist
CC(NC(=O)COC(=O)c1cccnc1Cl)C12CC3CC(CC(C3)C1)C2 (stereo unspecified)	.	13	-0.1%	-7	0.8	0.1
COc1ccc(CNC(=O)CNC(=O)c2ccc(Br)o2)cc1OC	-5	-1	-1.1%	5	-4.3	1.2
O=C(COc1ccccc1)OCC(=O)c1c[nH]c2ccccc12	-10	8	-2.3%	32	-3.7	1.5
CCCCn1cc2c(c1-c1ccc(Cl)cc1)c(=O)n(C)c(=O)n2C	.	.	1.3%	29	.	3.9
CCOC(=O)C(=NC(C)(C)C)NNc1cc(Cl)ccc1Cl	-23	-23	14%	51	-0.7	4.0
COc1ccc(/C=N/NC2=NCCCCC2)cc1	5	6	.	-4	-3.2	-0.3
Cc1ccccc1Cn1nc(C)c(NC(=O)c2noc3c2CCCC3)c1C	4	1	-3.2%[38.3 µM]	-11	-1.1	3.1
O=C(Nc1cn(-c2ccccc2)nc1-c1ccc(F)cc1)c1ccccc1	-6	0	15%	-3	-3.5	1.4
CC(C)(C)c1ccc(C(O)c2ncc(-c3ccccc3)[nH]2)cc1 (stereo unspecified)	-11	-8	8.4%	.	7.9	-0.2
CCCCN1C(=O)c2ccc(C(=O)Nc3cccc(C)c3C)cc2C1=O	4	5	25%	-3	0.3	0.1
Nc1nc(SCC(=O)NNc2c(Cl)cc(Cl)cc2Cl)n[nH]1	1	11	-1.2%	1	-1.5	0.7
Cc1ccc(C)c(S(=O)(=O)NC(C)CCc2ccccc2)c1 (stereo unspecified)	2	14	?	35	-3.3	3.9
O=C(C1CCN(S(=O)(=O)c2ccccc2F)CC1)N1CCCC1	-25	12	0.5%	1	-2.3	-0.3
COc1ccc(OC)c(Nc2c3ccccc3nc3ccccc23)c1	?	-27	?	8	-7.0	2.3
O=C(NCc1ccc(F)cc1)C1CC(=O)N(CCc2ccccc2)C1 (stereo unspecified)	4	0	1.0%	-2	-0.5	-0.4
N#C/C(=C\c1ccc(Sc2ccccc2)o1)c1nc2ccccc2[nH]1	4	8	?	-6	2.9	14
O=C(Cc1ccccc1)NNC1CC(=O)N(c2ccccc2)C1=O (stereo unspecified)	11	3	8.7%	-9	-0.8	0.3
CC(C)=CCc1ccc(O)c(=O)cc1C(C)C	-15	?	1.0%	2	0.1	1.6
Nc1nc(F)cc(N2CCCCCC2)n1	0	-2	2.6%	6	2.0	-0.2
Cc1ccc(-n2ncc(C(=O)Nc3c(Cl)cccc3Cl)c2C2CCNCC2)cc1	.	.	-12%	?	.	0.2
COc1ccccc1/C=C1\SC(=S)N(CCC(=O)Nc2cc(C)on2)C1=O	1	-12	19%	-11	0.5	-0.1
C=CCNC(=O)C1CCN(c2cc(C)nc(-c3ccccc3)n2)CC1	-4	-7	2.0%	7	-0.7	-0.2
O=C1N(CCCN2C(=O)C3(OCCO3)c3ccccc32)c2ccccc2C12OCCO2	5	-1	9.4%[38.3 µM]	7	-2.7	-0.7
CCOc1ccccc1CNCCNC(=O)c1nonc1N	4	7	0.0%&-0.5%	41&21	-3.1	0.7&0.3
COc1ccc(C2=CC(=O)C[C@H](c3ccc(OC)cc3)C2)cc1	.	-3	0.5%	38	-2.1	-0.1

Of the compounds above, two have two or more sulfur atoms.
SMILES	CtBP-E1A inh	Six1-Eya2 blk	PINK1 modulator	TRPML1 blocker	D2 ag	TRPML1 agonist
O=C(Nc1nc(-c2ccccc2)cs1)c1cccc(S(=O)(=O)N2CCN(Cc3ccccc3)CC2)c1	3	-12	-0.1%	-27	-6.5	2.3
COc1ccccc1/C=C1\SC(=S)N(CCC(=O)Nc2cc(C)on2)C1=O	1	-12	19%	-11	0.5	-0.1

Shown with values under each structure: 2 of the compounds above
Second line of a record – CtBP-E1A inh, Six1-Eya2 blk, PINK1 modulator, TRPML1 blocker, D2 ag, TRPML1 agonist
CCOc1ccccc1CNCCNC(=O)c1nonc1N
  4, 7, 0.0%&-0.5%, 41&21, -3.1, 0.7&0.3
COc1ccc(C2=CC(=O)C[C@H](c3ccc(OC)cc3)C2)cc1
  ., -3, 0.5%, 38, -2.1, -0.1
